VACV mCherry inh: inhibitors of vaccinia virus infection (mCherry reporter signal) | Vaccinia virus mCherry reporter infection, fluorescence; about a quarter of the inactives have no number | Potency, µM (highest dose often 36.5 µM), without a hit: at the top dose activity change, negative = inhibition, hits mostly inhibitors | 310,000 tested, 0.63% active; active = well fitted inhibition curve with a large enough effect; inconclusive = small, poorly fitted or top-dose-only effect; inactive = no such curve, though single readings can be large or run the other way; tested in A549 cells; note: nearly all actives have a fitted effect of over 35% in size; inactives centre near -10
Vaccinia Venus: vaccinia inhibition (Venus reporter) | Vaccinia virus Venus reporter expression, fluorescence | Potency, µM (titrated, usually from 36.5 µM), for inactives: top-dose activity change, negative = inhibition, usual class: inhibitors | 330,000 tested, 0.46% active; active means well fitted inhibition curve with a large enough effect; inconclusive means small, poorly fitted or top-dose-only effect; inactive means no such curve, though single readings can be large or run the other way; tested in A549 cells; note: nearly all actives have a fitted effect of over 30% in size; inactives centre near -10
* marks the source's active call; other numbers are inactive results; i = inactive; ? = inconclusive; . = not tested or not shown; [ ] = dose if it differs, or a comment. % is set by controls: 0 for no effect and ±100 for the full control effect; potency is the fitted concentration of half-maximal effect.

SMILES	VACV mCherry inh	Vaccinia Venus
COc1ccc([C@@H]2[C@@H]3C(=O)N(C(C)(C)C)C(=O)[C@@H]3[C@]3(Cc4ccc(Cl)cc4)C(=O)N(c4ccc(Br)cc4)C(=O)N23)cc1	-10%	-18%
Nc1nc(N)c2ncn(C3C=CC(CO)C3)c2n1 (stereo not drawn)	i	-4%
Cc1ccc(OCCn2c(C3CC(=O)N(Cc4ccc(F)cc4)C3)nc3ccccc32)c(C)c1 (stereo not drawn)	-10%	?
Cc1nc(-c2ccc(Cl)cc2)sc1C1(C)CC(c2ccc(Cl)cc2)=NO1 (stereo not drawn)	i	-3%
CC(=O)c1c(C)[nH]c(C(=O)Nc2ccc(F)c(F)c2F)c1C	i	-19%
Cn1c(NCc2ccccc2)nc2cc(-c3ccccc3)sc2c1=O	15%	-5%
Cc1ccc(C(=O)N2CCCC(C(F)(F)F)C2)cc1S(=O)(=O)N1CCCCC1 (stereo not drawn)	-10%	-11%
O=C(NN(Cc1ccccc1)Cc1ccccc1)c1ccccc1	?	8%
CC(C)=CCN1CCN(Cc2ccc(C#CC(C)(C)O)cc2)CC1CCO (stereo not drawn)	i	-13%
O=C1COc2ccc(S(=O)(=O)CCC(=O)N3CCN(c4ccccc4)CC3)cc2N1	-12%[7.34 µM]	5%[7.34 µM]
CCCNc1nc(-c2cc(C(=O)Nc3ccccc3)on2)cc(C(C)C)n1	-15%	-25%
O=C1c2ccccc2C(=O)N1CC(=O)N1c2ccccc2CCc2ccccc21	-25%	-15%
Cc1ccc(OCCCCN2CCC(C)CC2)cc1	-10%	-2%
Cc1cc(=O)[nH]c(Nc2cccc(F)c2)n1	-11%	-5%
O=C(NCc1ccc(Cl)cc1)C(=O)NCC1OCCN1C(=O)c1cccs1 (stereo not drawn)	-13%	-1%
COc1ccc(-c2nc3scc(-c4ccc(OC)c(OC)c4)c3c(=O)o2)cc1	-14%	-3%
Cc1ccc(NC(=O)CN2CCN(c3ccccc3F)CC2)cc1F	-19%	-14%
Cc1cc(SCC(=O)c2ccc(O)c(O)c2)n2nc(C)c(-c3ccccc3)c2n1	11µM*	-29%
COc1ccc2nc(N3CCC(O)CC3)c(C#N)cc2c1	-14%	-9%
CCOC(=O)C1CCN(C(=O)COc2ccc(S(=O)(=O)N3CCCC3)cc2C)CC1	-2%	-6%
Cc1ccc(-n2c(=O)c3c4c(sc3n(CC(=O)Nc3ccccc3C)c2=O)CCCCC4)cc1C	-8%	-8%
COc1ccccc1CN(C)C(=O)CSCC(=O)Nc1ccccc1F	-22%	-9%
O=S(Cc1ccc(Br)cc1)Cc1nnc(SCc2c(F)cccc2Cl)n1-c1ccccc1 (stereo not drawn)	-12%	-29%
CCOc1ccc(-c2nnn(CC(=O)N3CCN(c4ccc(F)cc4)CC3)n2)cc1OCC	-13%	-9%
Cc1nn(-c2ccccc2)c2c1cc1c(=O)[nH]c(=O)nc-1n2-c1cccc(C(F)(F)F)c1	-10%	-9%
CCN1CCN(c2cc(C(C)C)nc3c(-c4ccccc4)c(C)nn23)CC1	?	-27%
Cc1cc(C)c(NC(=O)Cn2nc3c(cc2=O)CCCC3)c(C)c1	-11%	1%
COc1ccc(C(CC(=O)O)NC(=O)c2ccccc2[N+](=O)[O-])cc1 (stereo not drawn)	i	-15%
COc1ccccc1NC(=O)CN1C(=O)C(c2ccc(F)cc2)=NC1(C)C	-15%	-14%
COc1ccc(OC)c(NC(=O)CSc2ccc(-c3sc(C)nc3C)nn2)c1	-8%	-8%
C=CCn1c(COc2ccccc2)nnc1SCC(=O)N/N=C/c1cc(Cl)ccc1O	.	?
Cc1cc(OCC(=O)O)c2ccccc2n1	4%	6%
O=C(COC(=O)c1c(F)cccc1F)Nc1ccc2c(c1)OCO2	-19%	-3%
Cc1cc(=O)[nH]c2n[nH]c(-c3ccccc3)c12	-10%	9%
CCN=C1SC(C(=O)Nc2cccc(OCC)c2)CC(=O)N1CC (stereo not drawn)	-17%	-8%
COC(=O)C1=C2SC(C)C(=O)N2C(N)=C(C#N)C1c1ccc(OC)c(OC)c1 (stereo not drawn)	.	-1%
CC(C)(C)N(Cc1cc2ccccc2[nH]c1=O)C(=O)c1ccco1	17%	3%
CN(C)S(=O)(=O)N1CCC(Oc2cccc(C(=O)NC3CCCCC3)c2)CC1	i	-19%
O=C(NC(=S)NCc1cccnc1)c1cc(Br)ccc1Cl	-1%	-11%
Cc1ccc(C(=O)COC(=O)CNC(=O)CNC(=O)c2ccc(C)cc2)cc1	-3%	-8%
Cc1ccc(NC(=O)C2CCN(S(=O)(=O)c3ccc4ccccc4c3)CC2)nc1	-2%	-17%
CCc1ccccc1OCC(=O)Nc1ccc(S(=O)(=O)Nc2nc(C)cc(C)n2)cc1	-1%	-9%
Cc1ccc(-n2c(N)c(C(=O)Nc3ccccc3F)sc2=S)cc1C	i	-4%
CC1c2ccccc2-c2ccccc2N1C (stereo not drawn)	-3%	3%
CCC(=O)NC(=S)Nc1cccc(NC(=O)c2ccccc2Cl)c1	i	-15%
Oc1ccc(Cl)cc1-c1cc(-c2ccco2)[nH]n1	-29%	-19%
Cc1ccc(C2=NS(=O)(=O)N(C)C(C(=O)NCc3ccc4c(c3)OCO4)=C2)cc1	i	5%
CCN(CC)N=O	-14%	-10%
CCOCC(=O)Nc1nnc(COCC)s1	-12%	-12%
C=CCc1ccccc1OCC(O)CN1CCN(C(=O)OCC)CC1 (stereo not drawn)	-16%	-15%
Cc1cccc(Nc2nnc(SCC3CCCCO3)s2)c1 (stereo not drawn)	-20%	-6%
Cc1ccc(C)c(N2CCN(C(=O)CCc3nc4ccccc4[nH]3)CC2)c1	9%	-11%
Cc1ccc(C(=O)c2oc3ccccc3c2NC(=O)COc2ccccc2C)cc1	-15%	-1%
COc1cc(S(=O)(=O)N2CCC(N3CCCCC3)CC2)ccc1-n1cnnn1	.	2%
O=C(CCCNS(=O)(=O)c1ccc(Cl)c(Cl)c1)NCCc1ccccn1	-2%	-11%
CCC(C)(C)C1CCC2(CC1)NC(=O)N(CC(=O)N1CCN(c3ccccc3OC)CC1)C2=O (stereo not drawn)	i	?
N/C(=N\OC(=O)c1ccc(Cl)c([N+](=O)[O-])c1)c1ccccn1	-19%	?
CC(C)OC(=O)CSc1nnc(CNc2cccc(Cl)c2)n1C	-3%	-2%
CCOc1ccc(C2C([N+](=O)[O-])=C(C)N(C)C(=O)N2C)cc1OC (stereo not drawn)	-2%	-17%
COc1ccc(NS(=O)(=O)c2ccc(O)c(C(=O)OCC(=O)Nc3ccc4c(c3)OCCO4)c2)cc1	-19%	-18%

Brought forward from above: five entries, then new ones.
SMILES	VACV mCherry inh	Vaccinia Venus
CCC(C)(C)C1CCC2(CC1)NC(=O)N(CC(=O)N1CCN(c3ccccc3OC)CC1)C2=O (stereo not drawn)	i	?
N/C(=N\OC(=O)c1ccc(Cl)c([N+](=O)[O-])c1)c1ccccn1	-19%	?
CC(C)OC(=O)CSc1nnc(CNc2cccc(Cl)c2)n1C	-3%	-2%
CCOc1ccc(C2C([N+](=O)[O-])=C(C)N(C)C(=O)N2C)cc1OC (stereo not drawn)	-2%	-17%
COc1ccc(NS(=O)(=O)c2ccc(O)c(C(=O)OCC(=O)Nc3ccc4c(c3)OCCO4)c2)cc1	-19%	-18%
CS(=O)(=O)Nc1cccc(C2=NN(S(=O)(=O)c3ccc(F)cc3)C(c3cccs3)C2)c1 (stereo not drawn)	-29%	-21%
COc1cc(NC(=O)c2cc(S(=O)(=O)N3CCC(C)CC3)cn2C)cc(OC)c1OC	-1%	-6%
CC(C)Nc1nnc(SC(C)C(=O)N(C)C2CCCCC2)s1 (stereo not drawn)	?	-4%
COCCN(C(=O)COC(=O)CCOc1cc(C)ccc1C)c1c(N)n(Cc2ccccc2)c(=O)[nH]c1=O	-29%	-11%
O=C1CNC(=O)/C1=C/c1ccccc1	i	-19%
CCn1nc(-c2ccccc2C)nc2c(=O)n(C)c(=O)nc1-2	5.6µM*	6.3µM*
COC(=O)C1=C(c2ccc(-c3ccccc3)c(F)c2)C[C@@H]2CC[C@H]1N2C(=O)NCCOc1ccccc1	-2%	?
CC(C)C[C@@H](CN1CCC[C@@H]1CN1C(=S)NC[C@@H]1Cc1ccc(O)cc1)N1C[C@H](Cc2ccc(O)cc2)N(CCc2ccccc2)C1=S	?	?
CCOC(=O)C1=C(O)/C(=C/c2ccccn2)SC1=Nc1ccc(Cl)cc1	i	-14%
O=C(Nc1ccccc1C(=O)O)c1ccc(Cl)c(S(=O)(=O)N2CCOCC2)c1	-10%	-5%
CCN(CC)CCNC(=O)Cc1nn(Cc2ccccc2)c(=O)c2ccccc12	-15%	-10%
Cn1cc(CNCc2cn(C)nc2-c2ccc(C3CCCCC3)cc2)cn1	-22%	-16%
C/C(CC(=O)Nc1cc(C)ccn1)=N\NC(=O)C(=O)NC(C)C	-5%	2%
Cc1cc(C)n2nc(C(=O)NC(c3ccccc3)c3ccccc3)nc2n1	-8%	10%
Cc1cccc(N2CC(=O)N(c3cccc(C)c3)CC2=O)c1	i	-15%
C=Cc1ccc(Cn2c(C)c(C(=O)NCCC#N)sc2=O)cc1	44%[activator]	1%
CCOc1ccc(S(=O)(=O)N2CCC(C(N)=O)CC2)c2ccccc12	?	-30%
COc1ccc(CN(C)CC(=O)Nc2sc3c(c2C#N)CCC3)c(OC)c1	-13%	-11%
CCCCCCCCCCCCC/C=C/[C@@H](O)[C@H](CO)NC(C)=O	-15%[3.33 µM]	-3%[3.33 µM]
C[C@H](CO)N1C[C@H](C)[C@@H](CN(C)CC2CCCCC2)Oc2ccc(NS(C)(=O)=O)cc2C1=O	-6%	-4%
c1ccc2c(-c3nnc(SCc4cn5ccccc5n4)o3)c[nH]c2c1	-26%	-13%
COCCCN1C(=O)c2ccccc2CC1(C)C(=O)NC1CCCCC1 (stereo not drawn)	-11%	-14%
CC1(C)NC(=O)N(CC(=O)OCC(=O)N2CCN(S(=O)(=O)c3ccccc3)CC2)C1=O	-2%	-10%
COc1ccccc1CNC(=O)CNC(=O)Cn1cnc2ccccc2c1=O	.	-27%
Cn1ncc([N+](=O)[O-])c1C(=O)Nc1ccc(C2CCCCC2)cc1	-21%	-7%
COC(=O)c1ccc(OCC2c3cc(OC)c(OC)cc3CCN2C(=O)COc2ccc(Cl)cc2)cc1 (stereo not drawn)	8%	0%
C=CCNC(=O)c1onc(CCl)c1C(=O)OC	?	?
O=C(Oc1ccccc1Cl)C1CCN(C(=O)c2ccc(F)cc2)CC1	-19%	-15%
CC(C)NS(=O)(=O)c1ccc(CCC(=O)Nc2ccc3c(c2)OCO3)cc1	-12%	5%
O=C(NC(CO)C(=O)OCc1ccccc1)OCc1ccccc1 (stereo not drawn)	i	-4%
CCOC(=O)C1=C(O)/C(=C\c2cccs2)N=C1C	-2%	-7%
COC(=O)c1ccccc1NC(=O)c1ccc(-c2ccc(Br)cc2)o1	.	2%
Cc1cc(C)n2nc(SCCC(=O)NCc3ccccc3)nc2n1	i	1%
Cc1cc(C)cc(C(=O)Nc2c3c(nn2-c2ccccc2C)CS(=O)(=O)C3)c1	-13%	-7%
Cc1cccc(Nc2nc(N)c([N+](=O)[O-])c(N3CC(C)CC(C)C3)n2)c1 (stereo not drawn)	20µM*	?
O=C(N/N=C/c1ccccc1[N+](=O)[O-])c1cnccn1	i	-15%
CC(C)CN(C(=O)COC(=O)c1ccc2c(c1)NC(=O)CS2)C1CCS(=O)(=O)C1 (stereo not drawn)	.	-14%
Cc1cc(C)n(CCOC(=O)c2sc3ccccc3c2Cl)n1	.	-24%
Cc1ccc(C)c(NC(=O)C(NS(=O)(=O)c2ccc3c(c2)CCC(=O)N3)c2ccccc2)c1 (stereo not drawn)	-15%	3%
CCOc1ccccc1CNC(=O)c1cnc2sc(N3CCC(C)CC3)nn2c1=O	-13%	-14%

4 compounds picked at random from the list so far:
SMILES	VACV mCherry inh	Vaccinia Venus
Cc1nn(-c2ccccc2)c2c1cc1c(=O)[nH]c(=O)nc-1n2-c1cccc(C(F)(F)F)c1	-10%	-9%
Cc1cccc(Nc2nc(N)c([N+](=O)[O-])c(N3CC(C)CC(C)C3)n2)c1 (stereo not drawn)	20µM*	?
Cc1ccc(C(=O)c2oc3ccccc3c2NC(=O)COc2ccccc2C)cc1	-15%	-1%
Cc1cc(C)cc(C(=O)Nc2c3c(nn2-c2ccccc2C)CS(=O)(=O)C3)c1	-13%	-7%

Carrying on:
SMILES	VACV mCherry inh	Vaccinia Venus
COc1ccc(-c2nc(SCC(=O)NCCc3ccccc3)n[nH]2)cc1	-12%	-14%
O=C(Nc1c(Cl)ccc2nsnc12)c1ccc(Br)o1	i	-3%
CC1(C)Cc2nc3sc4c(=O)n(Cc5ccccc5)cnc4c3cc2CS1	i	-17%
CC(C)CC(NC(=O)C1CCC(=O)N1C(=O)OCc1ccccc1)C(=O)NC(Cc1ccccc1)C(N)=O (stereo not drawn)	-17%	5%
CCN(Cc1ccccc1)S(=O)(=O)c1cc(C(=O)NCC2CCCCC2)ccc1OC	-7%	?
O=S(=O)(c1cccs1)N1CCC(Cc2ccccc2)CC1	-14%	-9%
O=C(CN1C(=O)NC2(CCCC2)C1=O)N1CCN(c2cccc(C(F)(F)F)c2)CC1	-8%	-24%
CCc1nnc(NC(=O)Cn2nnc(-c3ccccc3F)n2)s1	-5%	-5%
Cc1ccccc1NC(=O)c1ccc2snnc2c1	-19%	-16%
O=C(CSc1nnc(NC(=O)c2ccco2)s1)Nc1ccccc1Cl	3%	0%
CCOc1cc(/C=N/NC(=O)c2cccs2)cc([N+](=O)[O-])c1O	-19%	-12%
COc1cc(OC)c(OC)cc1CN1CCCC(C(=O)c2ccccc2SC)C1 (stereo not drawn)	i	-3%
O=c1c2cnn(-c3ccc(Cl)cc3)c2ncn1Cc1ccc(Cl)cc1Cl	-7%[7.34 µM]	-7%[7.34 µM]

Screening results deposited in PubChem BioAssay by National Center for Advancing Translational Sciences (NCATS).
